YjeE inh: qHTS Assay for Inhibitors of YjeE; purified YjeE, fluorescence polarisation of a bound ADP probe; Potency, µM; 71,000 compounds, 0.05% hits; AID 605, 2007; active = well fitted falling curve; inconclusive = weaker or top-dose-only fall, or a rising curve; inactive = flat or poorly fitted curve;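 further: top concentration of the series not given in the record; excess ADP was the control for the full effect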
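Fluorescence polarization of a BODIPY Texas Red–ADP probe (2 uM) bound to purified YjeE (10 uM) was read after 15 min room-temperature incubation with compounds. Loss of polarization marks inhibitors; ADP serves as titrated control.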
PK Bst: Pyruvate Kinase. partly purified Bacillus stearothermophilus pyruvate kinase, luminescence ATP production; ribose 5-phosphate activator present at AC10. Potency, µM. 51,000 compounds, 1.2% hits; in the data active means potency below about 11 µM; inconclusive means mostly about 12 µM to 25 µM; inactive means weaker than that;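 the screen sought inhibitors and activators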;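 further: potency means the concentration at half of the fitted maximal effect; scaled between full activation by ribose 5 phosphate and full inhibition by luteolin; about four in five hits inhibit and the cells do not say which; series up to 57 µM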
An asterisk follows results filed as active; i = inactive; ? = inconclusive; · = not tested or not shown. Some of the compounds tested; count on the stated rates, not on these rows.

SMILES	YjeE inh	PK Bst
Cc1nc(N2CCN(c3ccccc3)CC2)[nH]c(=O)c1Cc1cccc2ccccc12	i	>57
CCN(CC)C(=O)CSc1nnc(-c2cccs2)n1Cc1ccco1	i	>57
Cn1cccc1C(=O)N1CCC2(CCCN(c3ccncc3)C2)CC1	i	·
CCN1CCN(C(=O)N[C@H](C(=O)N[C@@H]2C(=O)N3C(C(=O)O)=C(CSc4nnnn4C)CS[C@@H]23)c2ccc(O)cc2)C(=O)C1=O	i	·
CC[C@H](NC(=O)c1c(C)c(-c2ccccc2)nc2ccccc12)c1ccccc1	i	·
Cc1nnc2n1N=CC=C(c1ccccc1)S2	i	>57
O=C(CC1SC(=Nc2ccccc2)N(CCCCO)C1=O)NCc1ccccc1 (centres undefined)	i	·
CCCCCOC(=O)CSc1nc2c(c(=O)[nH]c(=O)n2C)n1Cc1ccc(Cl)cc1	i	·
CCOC(=O)c1sc(NC(=O)C2CCCO2)c(C(=O)OC)c1C (centres undefined)	i	>57
Cc1ccc(S(=O)(=O)N2CCC(C(=O)Nc3nnc(COc4ccccc4)s3)CC2)cc1	i	>57
C[C@@H](CNC1CCCCC1)OC(=O)c1ccccc1	i	·
CN(C)c1ccc(C(=O)Nc2nc3c(s2)CCCC3)cc1	i	·
Cc1cc(C)n2nc(C(=O)OCC(=O)Nc3ccc4c(c3)OCO4)nc2n1	i	>57
c1ccc2c3nnc4n(c-3nc2c1)CCCS4	i	>57
O=C(Nc1nccs1)C1CCCN1S(=O)(=O)c1ccc(F)cc1 (centres undefined)	i	i

Some of these compounds in order of length of the SMILES, ascending.
SMILES	YjeE inh	PK Bst
O=C(CC1SC(=Nc2ccccc2)N(CCCCO)C1=O)NCc1ccccc1 (centres undefined)	i	·
CC[C@H](NC(=O)c1c(C)c(-c2ccccc2)nc2ccccc12)c1ccccc1	i	·
Cc1ccc(S(=O)(=O)N2CCC(C(=O)Nc3nnc(COc4ccccc4)s3)CC2)cc1	i	>57

Further records.
SMILES	YjeE inh	PK Bst
COc1ccc(NC(=O)CSc2nnc(-c3ccncc3)n2CC2CCCO2)c(OC)c1 (centres undefined)	i	>57
COc1ccc(OC)c(NC(=O)c2ccc(CN3CCOCC3)cc2)c1	i	·
Cn1ccnc1Sc1nc(Nc2cccc(Cl)c2)nc(N2CCOCC2)n1	i	·
O=C(NC1CCCc2ccccc21)C1CCN(S(=O)(=O)c2cnc[nH]2)CC1 (centres undefined)	i	·
O=C(O)CCSCC(=O)Nc1c(C(=O)C2CC2)oc2ccccc12	i	>57
O=C(CCC(=O)c1cccs1)OCC(=O)c1ccc(Cl)s1	i	>57
COc1cc(N)c(Cl)cc1C(=O)NC1CCN(Cc2ccccc2)CC1	i	·
COc1ncc2nc(C)c(=O)n(C3CC3)c2n1	i	·
CN(C)c1ncc2nc(-c3cccs3)c(=O)n(C[C@H]3CCCO3)c2n1	i	·
O=c1[nH]c2cc(C(F)(F)F)ccc2n1-c1cc(C(F)(F)F)ccc1O	i	·
Cc1nnc(SCC(=O)NC(C)c2ccccc2)[nH]c1=O (centres undefined)	i	·
CCCOc1ccc2oc(=O)c3c(c2c1)CCCN3C(=O)CN(C)Cc1ccccc1	i	>57
COc1ccc(CCNC(=O)Cc2nn(C)c(=O)c3ccccc23)cc1OC	i	>57
COc1ccccc1N(CC(=O)NCc1ccccn1)S(C)(=O)=O	i	·
Cc1cc(C)cc(NC(=O)Cn2ncn3c(cc4ccccc43)c2=O)c1	i	>57
COc1ccc(Nc2cc(C)nc3ncnn23)c(OC)c1	i	·
CCOC(=O)CNC(=O)Cn1cnc2sc(C)c(S(=O)(=O)N3CCC(C)CC3)c2c1=O	i	>57
O=C(CSc1nnnn1Cc1ccccc1)N1CCN(c2ccccc2)CC1	i	>57
Cc1cccc(-c2nc3ccccc3c3nncn23)c1	i	·
CCCCc1c(O)c2ccccc2[nH]c1=O	i	>57
CC(=O)Nc1ccc(NS(=O)(=O)c2cc(C)sc2C)cc1	i	?
Cc1ccc(O)c(-c2cc3ccccc3[nH]2)c1	i	·
Cn1c(SCC(=O)NCc2ccc3c(c2)OCO3)nnc1-c1cccs1	i	>57
CCOC(=O)c1[nH]c2cc3c(cc2c1NC(=O)CN1CCCCC1C)OCO3 (centres undefined)	·	>26
CCOc1ccc(NC(=O)CSc2nc3cccnc3n2CCOC)cc1	i	>57
CN1CC(=O)NC1=NC(=O)C12CC3CC(CC(C3)C1)C2	i	>57
O=C(CSc1nnc(CNC(=O)c2cccs2)o1)c1ccc(Cl)cc1	i	>57
COC(=O)c1ccc(Cl)c(NC(=O)CN2CCOCC2)c1	i	>57
COc1ccccc1-c1nnc2n1N=C(C(C)(C)C)CS2	i	>57
CCNc1ncc2ncc(=O)n(Cc3ccc(F)cc3)c2n1	i	·

Single entries from the entries so far.
PK Bst with Cc1ccc(S(=O)(=O)N2CCC(C(=O)Nc3nnc(COc4ccccc4)s3)CC2)cc1 reads >57
PK Bst with COc1ccccc1-c1nnc2n1N=C(C(C)(C)C)CS2 reads >57

One compound at a time, as listed above. Order of screens: YjeE inh | PK Bst
CCOC(=O)c1sc(NC(=O)C2CCCO2)c(C(=O)OC)c1C (centres undefined) is entered as i | >57
c1ccc2c3nnc4n(c-3nc2c1)CCCS4 is entered as i | >57
COc1ncc2nc(C)c(=O)n(C3CC3)c2n1 is entered as i | ·
O=C(NC1CCCc2ccccc21)C1CCN(S(=O)(=O)c2cnc[nH]2)CC1 (centres undefined) is entered as i | ·
CCN(CC)C(=O)CSc1nnc(-c2cccs2)n1Cc1ccco1 is entered as i | >57

(next part)
SMILES	YjeE inh	PK Bst
O=C(O)C1CC(c2ccccc2F)=NO1 (centres undefined)	i	>57
CCn1c(SCc2nc3ccccc3s2)nnc1-c1cccs1	i	>57
CN1C(=O)CC(N2CCC(c3nc4ccccc4s3)CC2)C1=O (centres undefined)	i	>57
COc1ccccc1N1CCN(C(=O)c2nn(-c3ccccc3OC)c(=O)c3ccccc23)CC1	i	>57
C=CCn1c(Sc2nnc(C)s2)nc2c1c(=O)[nH]c(=O)n2C	i	>57
Cn1c(=O)oc2cc(S(=O)(=O)N3CCOCC3)ccc21	i	>57
CCC(=O)O[C@@H]1[C@H](C)O[C@H](O[C@H]2[C@@H](N(C)C)[C@H](O)[C@@H](O[C@@H]3[C@@H](CC=O)C[C@@H](C)[C@@H](O)/C=C\C=C/C[C@@H](C)OC(=O)C[C@@H](OC(=O)CC)[C@H]3OC)O[C@H]2C)C[C@]1(C)O	i	·
COC(=O)[C@H](CCSC)NC(=O)Nc1ccc(C(C)C)cc1	i	>57
Cc1ccccc1-c1cncnc1NC1CCNCC1	i	·
CC(=Nc1ccc(O)cc1)c1sc2ccccc2c1O	i	?
c1ccc2c(c1)OCC(CNc1ncnc3nc[nH]c13)O2 (centres undefined)	i	·
Cn1c(COc2ccc(Cl)cc2)nnc1SCc1ncc(-c2ccccc2)o1	i	>57
CCCCOc1ccc(C(C)(O)CCN2CCOCC2)cc1 (centres undefined)	i	>57
CCOC(=O)c1cnc2ccc(Cl)cc2c1N1CCN(C)CC1	i	·
CN(C)S(=O)(=O)Nc1ccc2c(c1)OCO2	i	>57
COc1ccc(Cn2ccnc2)cc1Br	·	>26
CN(C)C(=O)c1ccc(-c2cc(NCc3cccnc3)ncn2)cc1	i	·
COc1cc(C(=O)NC2CC3CCCC(C2)N3C2CC2)cc(OC)c1OC (centres undefined)	i	>57
O=C1CC(=O)N(Cc2cccs2)C(=O)N1	i	>57
Cc1cc(=O)cc(C)n1-c1ccc2c(c1)nc(C)n2-c1ccccc1	i	>57
Cc1cccc2sc(NC(=O)CCNS(=O)(=O)c3cccs3)nc12	i	>57
N#CCCn1c(=O)cnc2cnc(N3CCOCC3)nc21	i	·
Cn1c(=O)c2c(nc(-n3ccnc3)n2Cc2ccccc2)n(C)c1=O	i	>57
COC(=O)c1c(N)n(-c2ccc(N3CCOCC3)cc2)c2nc3ccccc3nc12	i	>57
CN(C)Cc1ccccc1-c1nccc(NCc2cccs2)n1	i	·
COc1ccccc1OCCCn1cc(C#N)c2ccccc21	i	>57
O=C(c1c(O)c2ccccc2oc1=O)C1CCC1	i	>57
CC1CCc2nn(CC(=O)N3CCN(C(=O)c4ccco4)CC3)cc2C1 (centres undefined)	i	·
O=C(CSc1nnnn1-c1ccccc1)CC(=O)Nc1ccc(Cl)cc1	i	>57
COc1ccc(C(O)P(=O)(OC2CCCCC2)c2ccc(N(C)C)cc2)cc1OC (centres undefined)	i	>57
COc1ccc(CNC(=O)C2CCN(S(=O)(=O)c3cc(OC)ccc3OC)CC2)cc1	i	>57
CCc1nnc(NC(=O)CSc2nc3c(c(=O)n2-c2ccccc2OC)SCC3)s1	i	>57
Cc1ccc(C(=O)NCC(=O)O)cc1S(=O)(=O)N1CCCCC1	i	>57
Cc1nn(C(C)(C)C)c(OC(=O)c2ccc3c(c2)OCO3)c1S(=O)(=O)c1ccccc1	i	>57
CC(C)CCNC(=O)C(C)N(C(=O)Cn1nnc(-c2ccc(F)cc2)n1)C1CCCC1 (centres undefined)	i	>57
COC(=O)CN1C(=O)N(c2ccccc2)C(N(O)C(=O)Nc2ccccc2)C1(C)C (centres undefined)	i	>57
O=C(Nc1ccc(N2CCOCC2)c(Cl)c1)c1ncn[nH]1	i	·
C=CCOC(=O)C(C#N)c1nc2ccccc2nc1N1CCN(c2ccccc2OC)CC1 (centres undefined)	i	>57
Cc1nc(CCNC(=O)c2cccs2)cs1	i	>57
Cc1sc(NC(=O)c2cccs2)c(C(N)=O)c1C	i	·
CCOc1ccccc1NC(=O)CSc1nnnn1-c1ccc(C(=O)OC)cc1	i	>57
COc1ccccc1-c1nn2c(-c3ccccc3Cl)nnc2s1	i	>57
O=C(c1cc(-c2ccco2)on1)N1CCN(c2ccccc2)CC1	i	·
Cc1oc(C(C)(C)C)c(CN2CCCC2)c1C(=O)O	i	>57
C/C(NC(=O)c1cccs1)=C1\C(=O)C[C@@H]2[C@H]1C2(C)C	·	>26
Cc1nc2c3ccccc3n(CC#N)c(=O)n2n1	i	·
CN(C)Cc1ccccc1-c1ccc2ncnc(NC3CC3)c2c1	i	·
CCCCCCNS(=O)(=O)c1nc2nc(C)cc(C)n2n1	i	·
COc1ccc(Br)cc1C(=O)Nc1ccc(N2CCN(S(C)(=O)=O)CC2)cc1	i	>57
CN(CC(=O)N1CCCCCC1)S(=O)(=O)c1cccc2cccnc12	i	·
COc1ccc(NC(=O)c2ccc(-c3ccc(-c4noc(C)n4)cc3C)cc2)cc1OCCN(C)C	i	·
CNc1cc(NS(=O)(=O)c2ccc(N)cc2)nc(NC)n1	i	·
O=C(CSCc1cccc(Br)c1)N1CCOCC1	i	·
CCOc1ccc(CSC2=NCCN2)cc1Cl	i	>57
CCc1nc(NCc2ccco2)c2oc3ccccc3c2n1	i	·
CC1CCN(C(=O)CCCOc2cc(=O)n(C)c3ccccc23)CC1	i	>57
COc1cccc(NC=C2C(=O)OC3(CCCCC3)OC2=O)c1	i	·
CCCc1nnc(NC(=O)NCCN2C(=O)C3C4C=CC(C4)C3C2=O)s1 (centres undefined)	i	·
Nc1cccc(C(=O)Nc2ccc3nc(-c4cccnc4)[nH]c3c2)c1	i	·
C=CCO[C@@H](Cn1ccnc1)c1ccc(Cl)cc1Cl	i	·

Further entries
SMILES	YjeE inh	PK Bst
N#Cc1nc(-c2ccco2)oc1N1CCN(C(c2ccccc2)c2ccccc2)CC1	i	>57
NC(=O)SCC(=O)Nc1cccc(Cl)c1	i	·
NS(=O)(=O)c1cc([C@@]2(O)NC(=O)c3ccccc32)ccc1Cl	i	·
COc1ccc(OC)c(C2/C(=C(\O)c3ccc4c(c3)OCCO4)C(=O)C(=O)N2CCCN(C)C)c1 (centres undefined)	·	>26
CCCCOC(=O)c1cc(=O)[nH]c2ccccc12	i	?
O=C(Nc1cc(C(F)(F)F)ccc1N1CCCC1)c1ccc2c(c1)OCO2	i	>57
O=C(c1csnn1)N1CCC[C@@]2(CCN(Cc3nccs3)C2)C1	i	·
FC(F)(F)c1cccc(-c2nnc3ccc(C(F)(F)F)cn23)c1	i	>57
COCCN1C(=O)c2ccc(C(=O)O)cc2C1=O	i	>57
O=C(CCN1CCN(c2ccc(F)cc2)CC1)Nc1ccc(F)cc1	i	>57
O=C(c1cc2ccccn2n1)N1CCN(c2ccccn2)CC1	i	·
Cn1c(SCc2ccc(Br)cc2)nnc1-c1ccncc1	i	>57
CCOc1cc(C(=O)N2CCOCC2)ccc1OCc1ccccc1	i	>57
CC(=C/C=C/C(C)=C/C=C/C=C(C)/C=C/C=C(C)/C=C/C(=O)O)/C=C/C(=O)O	i	·
CSc1ccc(C2C3(C#N)C(N)=NC4(OCCO4)C23C#N)cc1 (centres undefined)	i	>57
Cc1ccc(C(C)C)c(OCC(=O)Nc2ccc(Cl)cn2)c1	i	>57
c1coc(CN=C2NC(=NCc3ccco3)c3ccccc32)c1	i	>57
CC(=O)c1ccc(NS(=O)(=O)Cc2ccccc2)cc1	i	·
Oc1ccc(-c2cccc(-c3ccc(O)cc3)n2)cc1	i	i
COc1ccc(-c2nc3cnc(OC)nc3n(-c3ccc(OC)cc3)c2=O)cc1	i	·
CC1CCCC(C)N1C(=O)C1CC(c2ccc(F)cc2)=NO1 (centres undefined)	i	>57
CCCCOc1ccccc1-c1cc(C(=O)O)[nH]n1	i	>57
O=C(NCc1cccnc1)c1cccc(S(=O)(=O)N2CCCCC2)c1	i	·
NC(=O)NC(=O)[C@H]1CCCC[C@@H]1C(=O)O	i	·
CCNC(=O)N1c2ccc(OC)cc2C(C)=CC1(C)C	i	>57

Exported with bars between the fields: 2 of the compounds above
Structure | YjeE inh | PK Bst
c1coc(CN=C2NC(=NCc3ccco3)c3ccccc32)c1 | i | >57
CC(=O)c1ccc(NS(=O)(=O)Cc2ccccc2)cc1 | i | ·

Compound activity: PubChem, National Center for Advancing Translational Sciences (NCATS)
